Bioassay records (PubChem)
A647 fluor = compound fluoresces in the A647 spectral region; Compound fluorescence, A647 channel (570/671 nm), Tris buffer; max dye-equivalent concentration, M; 59,000 tested, under 10 active; active means above 1 µM dye equivalent; inconclusive means 0.1 to 1 µM; inactive means 0.1 µM or less;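 also: values scaled relative to a standard on each plate; highest value over a series up to 38 µM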
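Buffer was dispensed, compounds and Alexa 647 standards were pin-transferred, and plates sat 15 min at room temperature. Intensity at 570/671 nm was then converted to dye-equivalent concentration using the plate's A647 standard curve.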
AID923 = qHTS Assay for Allosteric/Competitive Inhibitors of Caspase-1: Spectroscopic Profiling in AFC Spectral Region; compound fluorescence, AFC spectral region (405/520 nm); almost no hit is shown here; hit rate 1.1% among 75,000; AID 923, 2007; Potency, µM (titrated, usually from 57.5 µM), for inactives: top-dose fluorescence increase, actives largely listed as activators; active = well fitted activation curve with a large enough effect; inconclusive = small, poorly fitted or top-dose-only effect;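 also: potency is read from the fitted curve at half-maximal effect; 0% is about no effect; scaled to a free AFC standard on each plate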
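Baseline compound fluorescence (AFC region, 405 nm ex/520 nm em) taken from the intercept of kinetic reads with 50 nM caspase-1 and 5 uM Ac-WEHD-AFC; normalized to an on-plate AFC standard curve; compounds titrated up to 57 uM.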
Resorufin fluor = compounds fluorescent in resorufin spectral region. Compound fluorescence, resorufin region 547/598 nm, buffer; active compounds read high. max dye-equivalent concentration, M. hit rate 0.04% among 59,000. AID 588; active = above 10 nM dye equivalent; inconclusive = 1 to 10 nM; inactive = 1 nM or less; a few of its hits are not listed in these tables; also: highest value over a series up to 38 µM
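Dye-equivalent concentration values derive from comparing each well's 547/598 nm fluorescence against resorufin standards included on every plate. Incubation was 15 min at room temperature in 100 mM Tris, pH 8.0.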
A488 autofl = compound autofluorescence in A488 spectral region; compound autofluorescence, A488 spectral region, dye equivalency; active compounds read high; max dye equivalency, M; hit rate 0.1% among 59,000; AID 591; active = above 10 nM dye equivalent; inconclusive = 1 to 10 nM; inactive = 1 nM or less; about half of its hits are not listed in these tables;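 also: highest value over a series up to 38 µM; compound alone in buffer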
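Read-out: relative fluorescence at 480/540 nm, expressed as Alexa 488 dye-equivalent concentration from a six-point A488 standard included per plate. Conditions: 100 mM Tris, pH 8.0; 15 min incubation, room temperature.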
TSHR agonist = TSH receptor (human) agonism; HEK293-CNG-TSHR cells (CNG channel as cAMP sensor), membrane potential dye, cAMP; Potency, µM (highest dose often 57.1 µM), for inactives: at the highest dose activation, most hits filed as activators; P16473; hit rate 0.48% among 73,000; active = well fitted activation curve of enough size with the parental cells flat; inconclusive = any curve in the parental cells; inactive = parental cells flat and receptor cells flat or falling; also: potency is read from the fitted curve at half-maximal effect; % of control where 0% means no effect; weak receptor curves with flat parental cells got no call and are not listed
Target sequence (P16473 whole entry, looked up): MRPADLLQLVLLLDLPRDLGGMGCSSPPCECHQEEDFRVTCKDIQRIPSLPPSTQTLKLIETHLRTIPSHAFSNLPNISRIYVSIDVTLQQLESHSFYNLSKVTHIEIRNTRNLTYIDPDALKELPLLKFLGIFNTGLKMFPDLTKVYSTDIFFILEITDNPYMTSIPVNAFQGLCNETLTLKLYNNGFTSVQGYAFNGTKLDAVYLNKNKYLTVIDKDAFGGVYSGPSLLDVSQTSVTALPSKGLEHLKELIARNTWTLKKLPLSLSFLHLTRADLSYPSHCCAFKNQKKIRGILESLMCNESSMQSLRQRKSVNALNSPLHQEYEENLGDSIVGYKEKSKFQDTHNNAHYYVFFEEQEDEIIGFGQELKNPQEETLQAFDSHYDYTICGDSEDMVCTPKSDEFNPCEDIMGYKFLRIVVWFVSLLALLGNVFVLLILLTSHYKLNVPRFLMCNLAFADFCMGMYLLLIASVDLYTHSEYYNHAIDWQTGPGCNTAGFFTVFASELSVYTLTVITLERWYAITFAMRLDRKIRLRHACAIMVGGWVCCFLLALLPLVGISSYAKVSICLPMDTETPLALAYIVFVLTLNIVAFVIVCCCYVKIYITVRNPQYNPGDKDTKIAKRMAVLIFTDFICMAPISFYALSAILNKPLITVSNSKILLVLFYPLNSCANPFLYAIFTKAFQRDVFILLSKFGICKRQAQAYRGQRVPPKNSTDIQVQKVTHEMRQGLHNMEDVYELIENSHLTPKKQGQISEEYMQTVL
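HEK 293 cells stably expressing TSHR and a cAMP-gated CNG channel; parental CNG-only cells as counterscreen. Cells preloaded 60 min with membrane potential dye plus 100 uM RO 20-1724, then compound 30 min; fluorescence read at 590 nm.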
* = called active by the depositor; i = inactive; ? = inconclusive; · = no result given; & = joins results of further samples; [ ] = remark or other dose. Only part of the results is shown, so the mix of outcomes need not match the whole.

SMILES	A647 fluor	AID923	Resorufin fluor	A488 autofl	TSHR agonist
CCCCn1c(O)c(C=NCCN2CCCCC2)c(=O)[nH]c1=O	1.7e-08	·	i	i	·
C=CCC1(CN2CCCCCC2=O)C(=O)NC(=O)NC1=O	?	·	i	i	·
Oc1cccc(Cl)c1Cl	·	0.1%	·	·	?
CN(C)[C@@H]1C(=O)C(C(N)=O)=C(O)[C@]2(O)C(=O)C3=C(O)c4c(O)cccc4[C@@](C)(O)[C@@H]3C[C@@H]12	2.5e-09	·	i	i	-4%
COC(=O)[C@H]1C(=O)[C@H](C(=O)OC)[C@@H]2CC[C@H]1N2C	1e-09	0.6%[11.5 µM]	i	i	0%[11.4 µM]
NCCSC(c1ccccc1)c1ccccc1	1e-09	-0.7%[11.5 µM]	i	i	·
COC1=CC(=O)O[C@@H](/C=C/c2ccccc2)C1	·	-1.6%	·	·	-5%
O=C(Nc1ccccc1)N1CC[C@@]2(CCCN(C(=O)Oc3ccccc3)C2)C1	5.4e-09	4.2%	i	i	?
CNc1ccc2oc(C[C@@H]3O[C@@]4(CC[C@H]3C)O[C@@H]([C@@H](C)C(=O)c3ccc[nH]3)[C@@H](C)C[C@H]4C)nc2c1C(=O)O	3.7e-08	·	i	i	16%
Cc1ccccc1CS(=O)(=O)Cc1ccc(C(=O)N2CCC3(CC2)OCCO3)o1	4.3e-08	1.3%	i	i	11%
N[C@@H](CCP(=O)(O)O)C(=O)O	6.2e-09	-2.1%[11.5 µM]	i	i	2%[11.4 µM]
CCc1ccccc1NC(=O)CSc1nnc([C@@H](N)Cc2c[nH]c3ccccc23)o1	2.7e-09	5.3%	i	i	16%
Cc1cc2c(s1)NC(=O)CN=C2c1cccs1	3.5e-08	0.9%	i	i	4%
COC(=O)COc1cc(C)cc2oc(=O)c3c(c12)CCCC3	1e-09	-1.1%	i	i	·
c1ccc(C2CC3CC(c4ccco4)N2O3)cc1 (stereo not given)	·	1.5%	·	·	6%[11.4 µM]
Cc1ccc(S(=O)(=O)N2CN3CCN(C3)C2)cc1	1.6e-08	-0.3%	i	i	1%
CC[C@H](C)C(=O)O[C@@H]1[C@H](O)[C@@H]2[C@H](CN3C[C@@H](C)CC[C@@H]3[C@@]2(C)O)[C@@H]2C[C@@]34O[C@@]5(O)[C@@H](OC(=O)[C@](C)(O)CC)CC[C@@]3(C)[C@H]5[C@H](OC(C)=O)[C@@H](OC(C)=O)[C@H]4[C@]12O	4.2e-08	-6.9%[25.7 µM]	i	i	·
c1cc(C2N3CCCN2CC3)ccn1 (stereo not given)	3.5e-08	-1.7%[11.5 µM]	i	i	4%[11.4 µM]
COC(=O)C1=C(C)NC(C)=C(C(=O)OC)C1c1ccccc1[N+](=O)[O-]	8.5e-09&1.2e-09&3.2e-08	-3.0%	i	i	i
CC[C@@](O)(C(=O)O)c1cc2n(c(=O)c1CO)Cc1cc3ccccc3nc1-2	3.9e-08	3.2%[11.5 µM]	i	i	4%[11.4 µM]
COc1ccc(-c2nc(CSCC(=O)N3CCC4(CC3)OCCO4)c(C)o2)cc1OC	5.7e-09	-0.8%	i	i	-5%[11.4 µM]
CCCc1cc2c(n1Cc1ccc(C)cc1)C(C)C1CN(C(=O)c3ccccc3)C(C)(C(=O)OC)C21 (stereo not given)	·	4.6%	·	·	?
Cc1ccc(O)c(C)c1	·	0.7%	·	·	-8%
C=CCn1c(O)c(C(C)=NC2CC2)c(=O)[nH]c1=O	3.9e-09	2.2%	i	i	0%
Oc1ccc2c3c1O[C@H]1c4[nH]c5ccccc5c4C[C@]4(O)[C@H](C2)N(CC2CC2)CC[C@@]314	6.1e-08	2.4%&-4.3%	i	i	10%&6%
COC(=O)c1ccccc1C(=O)OC	·	-1.1%	·	·	-6%
O=C1C2CCCN2C(c2cccc(Cl)c2)N1c1ccccn1 (stereo not given)	1e-09	-0.1%	i	i	6%
N#C/C(N)=C(/N)C#N	·	0.7%	·	·	-1%
c1cc(CN2CCC3(CCNCC3)CC2)ccn1	3.1e-08	-0.9%	i	i	4%
O=C(Cn1ncc2ccsc2c1=O)N1CCC2(CC1)OCCO2	1e-09	-0.5%	i	i	-10%

A draw from above in order of number of heavy atoms, largest number first.
SMILES	A647 fluor	AID923	Resorufin fluor	A488 autofl	TSHR agonist
CC[C@H](C)C(=O)O[C@@H]1[C@H](O)[C@@H]2[C@H](CN3C[C@@H](C)CC[C@@H]3[C@@]2(C)O)[C@@H]2C[C@@]34O[C@@]5(O)[C@@H](OC(=O)[C@](C)(O)CC)CC[C@@]3(C)[C@H]5[C@H](OC(C)=O)[C@@H](OC(C)=O)[C@H]4[C@]12O	4.2e-08	-6.9%[25.7 µM]	i	i	·
COc1ccc(-c2nc(CSCC(=O)N3CCC4(CC3)OCCO4)c(C)o2)cc1OC	5.7e-09	-0.8%	i	i	-5%[11.4 µM]
C=CCn1c(O)c(C(C)=NC2CC2)c(=O)[nH]c1=O	3.9e-09	2.2%	i	i	0%

Back to the main list with the six entries that preceded the break.
SMILES	A647 fluor	AID923	Resorufin fluor	A488 autofl	TSHR agonist
Oc1ccc2c3c1O[C@H]1c4[nH]c5ccccc5c4C[C@]4(O)[C@H](C2)N(CC2CC2)CC[C@@]314	6.1e-08	2.4%&-4.3%	i	i	10%&6%
COC(=O)c1ccccc1C(=O)OC	·	-1.1%	·	·	-6%
O=C1C2CCCN2C(c2cccc(Cl)c2)N1c1ccccn1 (stereo not given)	1e-09	-0.1%	i	i	6%
N#C/C(N)=C(/N)C#N	·	0.7%	·	·	-1%
c1cc(CN2CCC3(CCNCC3)CC2)ccn1	3.1e-08	-0.9%	i	i	4%
O=C(Cn1ncc2ccsc2c1=O)N1CCC2(CC1)OCCO2	1e-09	-0.5%	i	i	-10%
CC(C)CCC1(CCN)C(=O)NC(=O)NC1=O	1e-09	2.8%[11.5 µM]	i	i	-4%[11.4 µM]
C(#CCN1CCOCC1)COCc1ccccc1	1.7e-09	-1.1%	i	i	2%
O=C(O)CS(=O)(=O)C(c1ccccc1)c1ccccc1	5.1e-09	1.8%[11.5 µM]	i	i	-1%[11.4 µM]
CCN=C=NCCCN(C)C	5.7e-08	1.6%[11.5 µM]	i	i	-4%[11.4 µM]
O=c1cc(-c2ccc(O)c(O)c2)oc2cc(O)cc(O)c12	1.2e-09&4.8e-08	0.6%	i	i	-4%[25.6 µM]
CC(C)C1(C)N=C(c2nc3ccccc3cc2C(=O)O)NC1=O (stereo not given)	5.3e-09	-2.7%	i	i	·
CC(C)(C)NCc1cccn1-c1sc2c(c1C#N)CCCC2	·	-1.5%	·	·	?
CCOP(=O)(C#CC(C)(C)C)C(C)(O)c1ccccc1 (stereo not given)	3.1e-08	-0.8%	i	i	6%
OCc1cnc[nH]1	1.9e-09	2.8%&-0.4%	i	i	1%&-6%
N#Cc1ccc(CN2CC[C@@]3(CCCN(C(=O)Oc4ccccc4)C3)C2)cc1	1.5e-08	-1.5%	i	i	?
Cc1cccc(OC(=O)N2CCOCC2)c1	·	-1.8%	·	·	3%
CC(N)Cc1c[nH]c2cc3c(cc12)OCCO3 (stereo not given)	1e-09	2.4%	i	i	21%
CC(=O)c1c(O)n(C)c(=S)n(-c2ccccc2)c1=O	2.8e-08	-0.1%	i	i	?
O=C(Cn1ncc2c3ccccc3n(Cc3ccc(F)cc3)c2c1=O)N1CCC2(CC1)OCCO2	4.1e-09	1.2%	i	i	-21%
COc1cc([C@H]2c3cc4c(cc3[C@@H](O)[C@@H]3COC(=O)[C@H]23)OCO4)cc(OC)c1OC	1.3e-09&3.3e-08	6.1%[25.7 µM]	i	i	?
COc1ccccc1CN1CCN(C(=O)Cc2ccccc2)CC1	·	2.1%	·	·	9%[11.4 µM]
CCCCC12CNCC(C)(CNC1)C2=O	3.9e-08	1.3%	i	i	0%
c1ccoc1	·	-3.1%	·	·	0%
CCCCn1c(C)c(C(=O)O)c2cc(OC)ccc21	3.4e-09	-0.1%	i	i	8%
O=C(NC[P+](=O)O)OCc1ccccc1	3.7e-08	-0.2%	i	i	-5%
Cn1c(O)c(/C=N/c2ccccn2)c(=O)n(C)c1=O	1e-09	0.6%	i	i	2%
C(CCOCC1CO1)COCC1CO1 (stereo not given)	·	0.0%	·	·	?
O=C(C1CCCCC1)N1CCC(c2nc3c(nnn3Cc3c(F)cccc3Cl)c(=O)[nH]2)CC1	2.9e-08	0.7%	i	i	?
OC1(c2cccnc2)CC2CCC(C1)N2Cc1nnnn1Cc1ccccc1 (stereo not given)	4.8e-09	1.2%	i	i	1%
N#Cc1cccc(NC(=O)N2CCCC3(CCN(C(=O)Oc4ccccc4)CC3)C2)c1	2.3e-09	1.0%	i	i	·
O=C1C[C@H]2OCCC=C3CN4CC[C@@]56c7ccccc7N1[C@@H]5[C@H]2[C@H]3C[C@@H]46	2.6e-09	·	i	i	2%
O=C(Cn1cnc2ccccc2c1=O)NCC(=O)N1CCC2(CC1)OCCO2	1e-09	0.0%	i	i	11%
Cc1cc(C)n2nc(SC(C)C(=O)N3CCC4(CC3)OCCO4)nc2n1 (stereo not given)	3.3e-08	-0.7%	i	i	10%
O=C(O)[C@H]1C[C@@H]1[C@H](NP(=O)(c1ccccc1)c1ccccc1)c1ccccc1	·	0.8%	·	·	7%
Cc1cc(OCC(=O)OC(C)(C)C)c2c3c(c(=O)oc2c1)CCC3	·	-1.6%	·	·	14%

Complete entries, looked up by structure. Order of screens: A647 fluor	AID923	Resorufin fluor	A488 autofl	TSHR agonist
Entry for N#Cc1cccc(NC(=O)N2CCCC3(CCN(C(=O)Oc4ccccc4)CC3)C2)c1 : 2.3e-09	1.0%	i	i	·
Entry for CCCCn1c(C)c(C(=O)O)c2cc(OC)ccc21 : 3.4e-09	-0.1%	i	i	8%
Entry for Cc1cc(C)n2nc(SC(C)C(=O)N3CCC4(CC3)OCCO4)nc2n1 (stereo not given) : 3.3e-08	-0.7%	i	i	10%

The listing continues:
SMILES	A647 fluor	AID923	Resorufin fluor	A488 autofl	TSHR agonist
C/C=C(\C)C(=O)O[C@@H]1C(C)=C2[C@H]([C@@H]1OC(=O)CCCCCCC)[C@@](C)(OC(C)=O)C[C@@H](OC(=O)CCC)[C@@]1(O)[C@H]2OC(=O)[C@]1(C)O	1e-09	-2.2%	i	i	·
COC(=O)C(O)(c1cn(C)c2ccccc12)C(F)(F)F (stereo not given)	3e-08	1.1%	i	i	-2%
C[C@]1(O)CC[C@H]2[C@@H]3[C@@H](O)CC4=CC(=O)CC[C@@]4(C)[C@H]3CC[C@]21C	1e-09	0.7%[11.5 µM]	i	i	0%[11.4 µM]
c1cc(Cc2cnc[nH]2)ccn1	·	-0.4%	·	·	5%
Cc1nnc2ccc(-c3cccc(C(F)(F)F)c3)nn12	·	-2.5%	·	·	9%
COP(=O)(OC)C(O)C(Cl)(Cl)Cl (stereo not given)	1e-09	·	i	i	·
c1ccc(C[C@@H](c2ccccc2)N2CCCCC2)cc1	·	-4.1%	·	·	?
Cc1ccc(S(=O)ON2CCC(C(=O)O)(c3ccccc3)CC2)cc1 (stereo not given)	1e-09	-2.7%[11.5 µM]	i	i	-1%[11.4 µM]
CN1CCCC2(CCN(C(=O)c3ccco3)CC2)C1	5.2e-09	2.5%	i	i	-2%
C[C@H]1CCC/C=C/C2C[C@H](O)CC2[C@H](O)/C=C/C(=O)O1 (stereo not given in full)	1e-09	·	i	i	·
CNCC(O)c1cccc(OC(=O)c2ccccc2C)c1 (stereo not given)	2.9e-09	-1.0%	i	i	19%[11.4 µM]
CC(C)=CCCC(C)CN(C)CCc1ccccn1 (stereo not given)	·	-2.1%	·	·	?
O=c1cc(C2CCNCC2)[nH][nH]1	4.8e-09	-0.6%	i	i	1%
C[N+]1(C)[C@@H]2CC[C@H]1CC(OC(=O)c1c[nH]c3ccccc13)C2 (stereo not given in full)	1.5e-08	-5.9%	i	i	?
O=C(O)CCCc1ccc(N(CCCl)CCCl)cc1	4.5e-09&3e-08&3.2e-08	2.1%	i	i	?
